# MLL AF4-AF9 inh = blocks AF4 peptide binding to human AF9; P42568; AlphaScreen, biotin-AF4 peptide binding to FLAG-AF9; inhibition, % at 10 µM; 350,000 tested, 0.47% active; AID 651704;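 active means every replicate reaching a set inhibition limit, whatever the replicate mean, cut at about 25% in these data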;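 further: 0% = plate neutral control median and 100% = total signal loss; the record names both 10 and 1 µM as test concentration; the first replicate is given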
# Target sequence (P42568 whole entry, looked up): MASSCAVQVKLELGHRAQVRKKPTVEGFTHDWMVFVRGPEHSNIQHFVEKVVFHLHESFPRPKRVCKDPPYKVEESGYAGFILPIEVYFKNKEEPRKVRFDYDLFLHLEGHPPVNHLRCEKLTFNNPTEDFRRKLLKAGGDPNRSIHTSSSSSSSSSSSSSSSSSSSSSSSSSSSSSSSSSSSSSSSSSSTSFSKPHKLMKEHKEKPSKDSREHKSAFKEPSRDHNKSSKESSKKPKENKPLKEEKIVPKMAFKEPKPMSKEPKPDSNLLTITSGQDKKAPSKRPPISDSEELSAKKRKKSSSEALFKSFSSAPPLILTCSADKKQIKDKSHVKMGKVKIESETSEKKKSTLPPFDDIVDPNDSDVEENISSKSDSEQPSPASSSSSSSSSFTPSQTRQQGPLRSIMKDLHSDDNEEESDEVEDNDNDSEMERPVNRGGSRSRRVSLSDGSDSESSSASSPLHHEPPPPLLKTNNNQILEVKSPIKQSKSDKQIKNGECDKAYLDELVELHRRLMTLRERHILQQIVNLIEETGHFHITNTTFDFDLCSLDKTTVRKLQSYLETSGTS
# * marks the source's active call; other numbers are inactive results; & = joins results of further samples.
SMILES,MLL AF4-AF9 inh
Cc1noc(C)c1S(=O)(=O)Nc1ccc2c(c1)C(=O)N([C@H](C)CO)C[C@H](C)[C@H](CN(C)C(=O)NC1CCCCC1)O2,-13
C[C@@H]1CN([C@@H](C)CO)S(=O)(=O)c2ccc(/C=C/c3ccccc3)cc2O[C@H]1CN(C)C(=O)Nc1cccc(F)c1,-2.8
CCOC(=O)C1(C)CCN1C(=O)c1ccc(-c2ccccc2)cc1 (centres undefined),-2.5
COc1ccc2c3c([nH]c2c1)[C@@H](CO)N(C(=O)c1cccnc1)CC31CCN(C(=O)NC(C)C)CC1,0.5
O=CNc1cc(-c2ccccc2Oc2ccccc2)cn2c(-c3ccc(F)cc3)cnc12,3.7
COc1ccc(C#Cc2cnc3c(c2)C(=O)N([C@H](C)CO)C[C@H](C)[C@H](CN(C)S(=O)(=O)c2cccc(F)c2)O3)cc1OC,6.2
O=C(C[C@H]1C[C@@H]2c3cc(NC(=O)NC4CCCC4)ccc3O[C@@H]2[C@@H](CO)O1)NCc1ccc(Cl)cc1,-0.2
CO[C@@H]1CN(C)C(=O)c2ccc(NS(C)(=O)=O)cc2OC[C@@H](C)N(C(=O)C2CCC2)C[C@H]1C,-1.7
C[C@H]1CN([C@@H](C)CO)C(=O)Cc2cc(NS(=O)(=O)c3ccccc3)ccc2O[C@@H]1CN(C)Cc1ccc2c(c1)OCO2,2.8
C[C@H](CO)N1C[C@H](C)[C@H](CN(C)S(=O)(=O)c2cn(C)cn2)OCCCC[C@H](C)Oc2ccc(NS(=O)(=O)c3ccccc3)cc2C1=O,2.0
O=C(NCc1nnnn1-c1ccccc1)c1ccc2ccccc2c1,-0.4
Cc1noc(C)c1S(=O)(=O)Nc1ccc2c(c1)CC(=O)N([C@H](C)CO)C[C@H](C)[C@@H](CN(C)Cc1ccc(Cl)c(Cl)c1)O2,3.5
C[C@H](CO)N1C[C@H](C)[C@H](CN(C)Cc2ccc3c(c2)OCO3)Oc2c(NC(=O)c3ccncc3)cccc2C1=O,-0.3
O=C1CN(S(=O)(=O)c2ccccc2)C[C@H]2[C@@H](c3ccc(C#CCc4ccccc4)cc3)[C@H](CO)N12,0.2
COc1ccc2c3c(n(C)c2c1)[C@@H](CO)N(Cc1ccncc1)CC31CN(C(=O)NC(C)C)C1,0.3
O=C(C[C@H]1C=C[C@@H](NC(=O)C2CC2)[C@H](CO)O1)NCC1CC1,-2.8
O=C(C[C@H]1C[C@@H]2c3cc(NC(=O)C4CCOCC4)ccc3O[C@@H]2[C@@H](CO)O1)NCCN1CCCCC1,-0.4
O=C(O)C[C@H]1C[C@H]2c3cc(NC(=O)NC4CCCCC4)ccc3O[C@H]2[C@H](CO)O1,-1.7
C[C@H]1CN([C@@H](C)CO)C(=O)c2cc(-c3cccnc3)cnc2O[C@@H]1CN(C)C(=O)C1CCOCC1,-1.4
C[C@H](CO)N1C[C@H](C)[C@@H](CN(C)Cc2ccc(-c3ccccc3)cc2)Oc2c(NC(=O)Nc3ccc(F)cc3)cccc2C1=O,2.4
C[C@@H]1CN([C@@H](C)CO)C(=O)CCCn2nncc2CO[C@@H]1CN(C)S(=O)(=O)c1ccccc1F,1.5&-0.1&-1.1
CC(=O)C1CCC2C3C=CC4=CC(=O)CCC4(C)C3CCC12C (centres undefined),-1.8
CCCN1C(=O)c2[nH]nc(-c3ccccc3)c2C1c1ccccc1 (centres undefined),1.1
CC(=O)Nc1cccc(-c2ccnc3c2CC(C(=O)NCc2ccc(F)c(F)c2)O3)c1 (centres undefined),6.1
O=C(C[C@H]1CC[C@@H]2[C@H](COC[C@@H](O)CN2C(=O)Nc2ccc(C(F)(F)F)cc2)O1)NCC1CC1,-0.2
# The results go on:
SMILES,MLL AF4-AF9 inh
CNc1nc(Oc2cccc(F)c2)c2sccc2n1,-1.8
COc1ccc(S(=O)(=O)N[C@H]2CC[C@H](CC(=O)N3CCc4ccccc4C3)O[C@@H]2CO)cc1,-1.9
CCC(=O)N[C@@H]1CC[C@@H](CC(=O)NCC2CC2)O[C@H]1CO,-2.4
CO[C@@H]1CN(C)C(=O)c2ccc(NC(=O)C3CCCCC3)cc2OC[C@H](C)NC[C@@H]1C,-2.2
CC(C)CC#Cc1ccc2c(c1)O[C@H](CN(C)C(=O)C1CCCCC1)[C@H](C)CN([C@@H](C)CO)S2(=O)=O,0.9
C[C@H](CO)N1C[C@H](C)[C@H](CN(C)C(=O)Cc2ccccn2)Oc2cc(C#Cc3ccccc3)ccc2S1(=O)=O,1.8
C[C@@H]1CN([C@@H](C)CO)C(=O)c2cc(NC(=O)Nc3ccc(C(F)(F)F)cc3)ccc2O[C@H]1CN(C)C(=O)NC1CCCCC1,0.3
COCC(=O)N1CC2(CN[C@@H](CO)c3c2c2ccc(OC)cc2n3C)C1,-8.6
C[C@H]1CCCCO[C@@H](CN(C)C(=O)Nc2ccccc2)[C@@H](C)CN([C@@H](C)CO)C(=O)c2cc(NC(=O)c3ccccc3)ccc2O1,0.8
COc1cc(NC(=O)Nc2nc(C(N)CCc3ccccc3)cs2)cc(OC)c1OC (centres undefined),20
CCCN1[C@@H]2Cn3c(ccc(C4=CCCCC4)c3=O)[C@H]1[C@@H](C(=O)N1CCOCC1)[C@@H]2CO,-32
COc1cccc(CNc2nc3cc(-c4cccc(Cl)c4)sc3c(=O)n2C)c1,-4.1
CCCC(=O)Nc1ccc2c(c1)C(=O)N(C)[C@H]1CC[C@H](CC(=O)N3CCCCC3)O[C@@H]1CO2,-2.1
C[C@H](CO)N1C[C@H](C)[C@H](CN(C)Cc2ccncc2)Oc2ncc(C#CC3CC3)cc2C1=O,3.4&-2.1&-1.0
CC(C)NC(=O)N(C)C[C@H]1Oc2ccc(N(C)C)cc2C(=O)N([C@H](C)CO)C[C@H]1C,-2.8
CN(C)Cc1c(C(C)(C)O)[nH]c2ccccc12,1.3
CC(=O)Nc1cc(-c2ccc(S(C)(=O)=O)cc2)cn2c(-c3ccc(F)c(Cl)c3)cnc12,-4.6
CCCNC(=O)N1[C@H](C#N)[C@H](c2ccccc2-c2ccccc2)[C@@H]1CO,-2.1
O=C(NC[C@H]1[C@@H](c2ccccc2)[C@@H](CO)N1C(=O)Cc1cccnc1)C1CC1,-0.3
O=C(C[C@@H]1C[C@H]2c3cc(NC(=O)C4CCOCC4)ccc3O[C@H]2[C@@H](CO)O1)NCc1ccccc1F,-0.8
CCC(=O)c1ccc(OC)c(OC)c1OCc1ccccc1,-3.6
CN1CCN(C(=O)C[C@H]2CC[C@H]3[C@@H](COC[C@@H](O)CN3C(=O)Cc3ccccc3)O2)CC1,1.8
C=CCN1C=CC(=O)[C@@H](O)[C@H]1c1ccccc1Br,-1.9
O=C(NCCc1ccncc1)[C@@H]1[C@@H](CO)[C@@H]2Cn3c(ccc(-c4ccncc4)c3=O)[C@H]1N2,-2.3
CN1C[C@H]2[C@@H](c3ccccc31)[C@@H](CO)N2C(=O)Nc1cccc(F)c1,-0.6
# Following part
SMILES,MLL AF4-AF9 inh
C[C@@H]1CN([C@@H](C)CO)C(=O)Cc2cc(NS(=O)(=O)c3ccccc3)ccc2O[C@H]1CN(C)Cc1ccc(-c2ccccc2)cc1,0.2
CC(C)NC(=O)N(C)C[C@H]1OCc2ccccc2-c2ccccc2C(=O)N([C@H](C)CO)C[C@H]1C,-3.0
C[C@@H]1CN([C@H](C)CO)S(=O)(=O)c2ccc(-c3ccc(F)cc3)cc2O[C@H]1CN(C)C(=O)c1ccccc1F,4.0
Cc1ccccc1S(=O)(=O)N1C[C@@H](O)COC[C@@H]2O[C@H](CC(=O)N3CCC(Cc4ccccc4)CC3)CC[C@H]21,3.9
O=C(NCC[C@@H]1CC[C@@H](NC(=O)C2CCOCC2)[C@@H](CO)O1)c1cc(Cl)cc(Cl)c1,-1.6
CC(C)NC(=O)Nc1ccc2c(c1)C(=O)N([C@H](C)CO)C[C@@H](C)[C@@H](CN(C)S(=O)(=O)c1ccc(Cl)cc1)OCCCC[C@H](C)O2,2.0
O=C1NC(=S)SC1=Cc1ccccc1C(=O)O,-0.5
C[C@H](CO)N1C[C@H](C)[C@H](CN(C)Cc2ccc3c(c2)OCO3)Oc2ccc(NC(=O)Nc3ccc(F)cc3)cc2C1=O,8.7
C[C@H](CO)N1C[C@H](C)[C@@H](CN(C)Cc2ccc(C(F)(F)F)cc2)Oc2ccc(NC(=O)C3CC3)cc2C1=O,0.9
O=C(C[C@@H]1CC[C@H](NC(=O)C2CC2)[C@H](CO)O1)NCC1CC1,-4.8
CC(=O)N1[C@@H]2c3ccc(-c4ccncc4)c(=O)n3C[C@H]1[C@H](CO)[C@H]2C(=O)NC1Cc2ccccc2C1,-9.2
CC(=O)N1CCCCN2[C@H](CO)[C@H](c3ccc(-c4cccc(C(=O)N(C)C)c4)cc3)[C@@H]2C1,-4.6
Cc1ccc(Cc2c(C3CCCCC3)nc3ccc(C)cn23)cc1,0.5
Cc1ccc(S(=O)(=O)Nc2ccc3c(c2)C(=O)N([C@H](C)CO)C[C@H](C)[C@@H](CN(C)CC2CC2)O3)cc1,0.2
C[C@@H]1CCCCO[C@@H](CN(C)C(=O)Nc2ccccc2)[C@@H](C)CN([C@H](C)CO)C(=O)c2cc(NC(=O)c3ccncc3)ccc2O1,-5.0
CS(=O)(=O)N1CC2(C1)[C@@H](c1ccccc1)[C@@H](CO)N2Cc1ccccc1,2.3
CCC(=O)Nc1ccc2c(c1)OC[C@H](C)N(Cc1nccs1)C[C@H](C)[C@@H](OC)CN(C)C2=O,-1.0
COc1ccc(-c2ccc3c(c2)[C@@H]2[C@@H](CCN2C(=O)C2CCCCC2)[C@H](CO)N3C)cc1,15
Cc1noc(C)c1S(=O)(=O)Nc1ccc2c(c1)CC(=O)N([C@@H](C)CO)C[C@@H](C)[C@@H](CN(C)C(=O)NC1CCCCC1)O2,-2.7
COc1cccc(CNc2nc3cc(C(C)=C(C)C)sc3c(=O)n2C)c1,-3.0
Cc1ccc(S(=O)(=O)N2C[C@H]3C(=O)C[C@@H](c4ccc(Cl)cc4)N(S(=O)(=O)c4ccc(C)cc4)[C@H]3C[C@H]2c2ccccc2)cc1,-1.6
C[C@H]1CN([C@@H](C)CO)C(=O)c2cc(NC(=O)Cc3ccccc3)ccc2O[C@@H]1CN(C)S(C)(=O)=O,0.8
COCC(=O)N1CCCCN2[C@@H](CO)[C@H](c3ccc(-c4ccc(F)cc4)cc3)[C@@H]2C1,-0.1
O=C(Nc1ccccc1)N1C[C@@H]2[C@H](c3ccccc31)[C@@H](CO)N2C(=O)c1ccccn1,-5.3
O=C(C[C@H]1CC[C@@H](NC(=O)c2ccc(F)cc2)[C@@H](CO)O1)NCCc1ccccc1,-0.5

# Sorted by molar mass (ascending): 3 of the compounds above.
SMILES,MLL AF4-AF9 inh
COCC(=O)N1CCCCN2[C@@H](CO)[C@H](c3ccc(-c4ccc(F)cc4)cc3)[C@@H]2C1,-0.1
COc1ccc(-c2ccc3c(c2)[C@@H]2[C@@H](CCN2C(=O)C2CCCCC2)[C@H](CO)N3C)cc1,15
C[C@@H]1CCCCO[C@@H](CN(C)C(=O)Nc2ccccc2)[C@@H](C)CN([C@H](C)CO)C(=O)c2cc(NC(=O)c3ccncc3)ccc2O1,-5.0

# 7 records picked at random from those above, as already listed:
SMILES,MLL AF4-AF9 inh
C[C@@H]1CN([C@@H](C)CO)C(=O)Cc2cc(NS(=O)(=O)c3ccccc3)ccc2O[C@H]1CN(C)Cc1ccc(-c2ccccc2)cc1,0.2
CN1CCN(C(=O)C[C@H]2CC[C@H]3[C@@H](COC[C@@H](O)CN3C(=O)Cc3ccccc3)O2)CC1,1.8
COc1ccc2c3c([nH]c2c1)[C@@H](CO)N(C(=O)c1cccnc1)CC31CCN(C(=O)NC(C)C)CC1,0.5
C[C@H]1CN([C@@H](C)CO)C(=O)c2cc(NC(=O)Cc3ccccc3)ccc2O[C@@H]1CN(C)S(C)(=O)=O,0.8
CCCNC(=O)N1[C@H](C#N)[C@H](c2ccccc2-c2ccccc2)[C@@H]1CO,-2.1
CCOC(=O)C1(C)CCN1C(=O)c1ccc(-c2ccccc2)cc1 (centres undefined),-2.5
C[C@H](CO)N1C[C@H](C)[C@H](CN(C)S(=O)(=O)c2cn(C)cn2)OCCCC[C@H](C)Oc2ccc(NS(=O)(=O)c3ccccc3)cc2C1=O,2.0

# Later entries:
SMILES,MLL AF4-AF9 inh
CO[C@H]1CN(C)C(=O)c2cc(NC(=O)c3cc(C)on3)ccc2OC[C@H](C)N(CC2CC2)C[C@@H]1C,-2.1
COCC#Cc1ccc2c(c1)O[C@H](CN(C)S(=O)(=O)c1ccc(F)cc1)[C@H](C)CN([C@H](C)CO)S2(=O)=O,-1.0
COc1ccccc1-c1cn(CC[C@H]2CC[C@H](NC(=O)NC(C)C)[C@H](CO)O2)nn1,4.2
CN(C)C(=O)c1ccc(-c2ccc(C3[C@H]4CNC[C@@H]3N4S(=O)(=O)c3ccccc3)cc2)cc1 (some centres undefined),6.6
COc1ccc(S(=O)(=O)Nc2ccc3c(c2)C(=O)N([C@H](C)CO)C[C@H](C)[C@@H](CN(C)C(=O)CCCN(C)C)OCCCC[C@@H](C)O3)cc1,-1.3
C[C@H](CO)N1C[C@H](C)[C@@H](CN(C)C(=O)Nc2ccc(C(F)(F)F)cc2)Oc2c(NS(=O)(=O)c3ccc(Cl)cc3)cccc2C1=O,-2.5
CN1C(=O)c2cc(NC(=O)c3cccc(F)c3)ccc2OC[C@H]2O[C@H](CC(=O)Nc3ccccc3)CC[C@@H]21,1.0
CS(=O)(=O)N1[C@@H]2Cn3c(ccc(-c4ccc(F)cc4)c3=O)[C@H]1[C@@H](C(=O)NCC1CC1)[C@@H]2CO,-0.5
CCCN1[C@@H]2c3ccc(-c4ccc(OC)cc4)c(=O)n3C[C@@H]2[C@@H](CO)[C@@H]1C(=O)NCC,1.1
COc1ccc(C(=O)N2C[C@@H]3[C@H](c4ccccc42)[C@@H](CO)N3Cc2ccccc2Cl)cc1,0.4
O=C(C[C@H]1C=C[C@H](NS(=O)(=O)c2ccc(F)cc2)[C@@H](CO)O1)NCCc1ccncc1,-1.3
CN(C)CCNc1ncnc2c1ncn2[C@H]1CN(Cc2cccs2)C[C@@H](CO)O1,1.5
CN(C)CCCNC(=O)C[C@H]1CC[C@H](NC(=O)Cc2cccnc2)[C@H](CO)O1,-1.5
c1ccc(Cc2c(-c3ccco3)nc3c4ccccc4ccn23)cc1,8.7

# An excerpt. The share of hits here may be higher or lower than overall.
